# Assay outcomes from PubChem.
# AID504770 = growth inhibitors of E. coli YBA685 in a screen for V. cholerae RctB (chromosome II replication) inhibitors. E. coli YBA685 rctB-dependent plasmid, OD600 growth, 3 h; active compounds read low. 0.27% of 130,000 active. z-score (concentration not given with the values);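 active = z-score under -2 on both plates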;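 also: wells of about 30 µL received 100 nL stock; score is relative to mean and SD of the test wells; the first replicate is given; strong numbers were not always called active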
# CapD inh = inhibitors of Bacillus anthracis CapD enzyme. purified CapD enzyme, fluorescence intensity read-out; active compounds read low; some hits fall short of the stated cut. z-score (no concentration beside the values). 0.23% of 140,000 active;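 active = z-score under -4 in either of two replicates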;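 also: stock transfer was 100 nL into about 40 µL; score is relative to mean and spread of the plate; one replicate is shown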
# * marks the source's active call; other numbers are inactive results; . = no result given.
# The first 2 compounds (preview)
SMILES,AID504770,CapD inh
CCN(CC)c1ccc(/C=N/N2C(=O)c3ccccc3C2=O)c(O)c1,1.1,0.7
COc1ccc(C2CC(c3cc(Cl)ccc3O)=NN2)cc1 (stereo not drawn),-1.8,6.4

# Main list, from the first entry:
SMILES,AID504770,CapD inh
CCN(CC)c1ccc(/C=N/N2C(=O)c3ccccc3C2=O)c(O)c1,1.1,0.7
COc1ccc(C2CC(c3cc(Cl)ccc3O)=NN2)cc1 (stereo not drawn),-1.8,6.4
O=C(NC1CCCN(c2nc3ccccc3s2)C1)N1CC=CCC1 (stereo not drawn),5.2,-1.5
O=C(O)CSCCS(=O)(=O)c1ccc(Cl)cc1,.,0.38
O=C(Cn1nnc(-c2ccncc2)n1)N(C1CCCCC1)C1CCCCC1,-1,.
CNc1sc(C(=O)c2ccc(Cl)cc2)c(N)c1C(N)=O,0.9,.
COc1ccc(C(=O)N(O)c2ccccc2)cc1,0.75,-0.05
N#Cc1ccsc1NC(=O)c1ccncc1,-0.5,-2.2
NNC(=S)Nc1cccc(Cl)c1,.,-0.24
CCCCNc1nc(SCC(=O)N2CCN(c3ccccc3)CC2)nc2ccccc12,.,-0.17
c1cc2c3c(cccc3c1)NC(c1ccc3c(c1)OCO3)N2,.,72
CC(C)CC(NC(=O)C1CCC(C)CC1)C(=O)NCc1ccccn1 (stereo not drawn),1.4,-0.77

# For reference, 2 of the compounds above.
SMILES,AID504770,CapD inh
c1cc2c3c(cccc3c1)NC(c1ccc3c(c1)OCO3)N2,.,72
CC(C)CC(NC(=O)C1CCC(C)CC1)C(=O)NCc1ccccn1 (stereo not drawn),1.4,-0.77

# (list continues)
SMILES,AID504770,CapD inh
O=C(Nc1nccs1)c1ccc(-c2ccc(Cl)cc2)o1,0.5,.
CC1CCC(C(C)C)C(OC(=O)C[n+]2ccsc2N)C1 (stereo not drawn),0.1,0.46
O=C(CSc1nnc(-c2ccccc2)c(-c2ccccc2)n1)N1CCOCC1,.,-0.41
Cc1cc(C(=O)N2CCN(C3c4ccccc4-c4ccccc43)CC2)c(C)o1,-0.45,0.93
N#CC1=C(SCC(=O)NCc2ccccc2)NC(=O)CC1c1ccccc1F (stereo not drawn),-0.1,-0.45
O=c1c2cc(-c3ccccc3)sc2nc2c3ccccc3cnn12,-0.05,0.84
COC(=O)c1sccc1NC(=O)c1cc(-c2ccc(Cl)cc2)nc2ccccc12,.,-0.05
O=C(c1ccc2ccccc2n1)N1CCCCC1,-0.15,0.095
O=C(O)C1C2CCC(O2)C1C(=O)N1CCN(C/C=C/c2ccccc2)CC1 (stereo not drawn),-0.6,0.03
COc1cc(NC(=O)COc2cc(C)ccc2C)c(C(=O)O)cc1OC,0.35,0.62
Fc1ccccc1-c1nnc(-c2ccc(OC(F)(F)F)cc2)o1,-0.05,0.72
Cc1c(C(=O)OCC(=O)c2ccc[nH]2)sc2nc3n(c(=O)c12)CCC3,-0.3,.

# Part of the list above, with two lines to a compound:
# Every second line gives: AID504770	CapD inh
> O=C(O)C1C2CCC(O2)C1C(=O)N1CCN(C/C=C/c2ccccc2)CC1 (stereo not drawn)
 : -0.6	0.03
> COC(=O)c1sccc1NC(=O)c1cc(-c2ccc(Cl)cc2)nc2ccccc12
 : .	-0.05
> CC1CCC(C(C)C)C(OC(=O)C[n+]2ccsc2N)C1 (stereo not drawn)
 : 0.1	0.46
> Fc1ccccc1-c1nnc(-c2ccc(OC(F)(F)F)cc2)o1
 : -0.05	0.72

# Further results follow.
SMILES,AID504770,CapD inh
CCN(CC)S(=O)(=O)c1cccc(C(=O)N(Cc2cccs2)CC2CCCO2)c1 (stereo not drawn),0,.
Cc1cccc(-n2c(SCc3c(C)noc3C)nc3ccccc3c2=O)c1,2.1,.
O=C(Nc1ccc(Br)cc1)c1cccs1,-1.1,0.02
CC1(C)SC(c2ccc(C3NC(C(=O)O)C(C)(C)S3)cc2)NC1C(=O)O (stereo not drawn),0.2,0.45
CN(C)c1ccc(/C=C2\SC(N3CCN(C(c4ccccc4)c4ccccc4)CC3)=NC2=O)cc1,.,-0.2
CC1CC1C(=O)OCC(=O)Nc1ccc(F)cc1 (stereo not drawn),-0.1,0.54
COc1cccc(/C=C2/SC(N3CCN(C4=NC(=O)/C(=C\c5cccc(OC)c5)S4)CC3)=NC2=O)c1,.,10
COc1ccc(C2CC(=O)C3=C(C2)Nc2ccccc2NC3c2cc(Br)ccc2OC)cc1 (stereo not drawn),.,-0.86
Cc1ccc(N2C(=O)CC(Nc3ccc(N4CCOCC4)cc3)C2=O)c(C)c1 (stereo not drawn),0.4,-0.42
CC(O)c1nc2cc3ccccc3cc2[nH]1 (stereo not drawn),1.5,.
CCOC(=O)C1CCN(C(=O)c2cc(C)nn2C(C)(C)C)CC1,0.05,-0.35
CC(C)Cn1c(=S)[nH]c2ccccc21,0.7,0.77
COc1ccccc1C(=O)N1c2ccccc2N2C(c3c(C)c(C)cc(C)c3C)=NON12,.,0.3
O=C1C=C2C(=CCOC2O)O1 (stereo not drawn),-5.2*,-0.01
CC1CN(S(=O)(=O)c2ccc(C(=O)Nc3ccccc3)cc2)CC(C)O1 (stereo not drawn),-1.3,-0.095
O=S(=O)(Cc1nc(CSc2ccccn2)cs1)c1ccc(Cl)cc1,-0.45,10
Nc1c(S(=O)(=O)c2ccccc2)nnn1-c1ccc(OC(F)(F)F)cc1,1.4,0.42
OC1(c2ccc(Cl)cc2)CN(c2ccccc2)C2=[N+]1CCCS2 (stereo not drawn),.,2.8
CCN(CCNCc1c(C(=O)O)n(C)c2ccccc12)c1ccccc1,-1.1,1.2
CS(=O)(=O)Nc1ccc(C#N)cc1,-0.35,0.39
CC(N=C1NS(=O)(=O)c2ccccc21)C(=O)N1CCN(S(=O)(=O)c2cccs2)CC1 (stereo not drawn),1.1,.
COc1ccc(C2CC(=O)C3=C(C2)NC(C)=C(C(=O)OC(C)C)C3c2cc(Cl)c(O)c(OC)c2)cc1 (stereo not drawn),.,22
CCOc1ccc(CNC(=O)c2cc(=O)[nH]c3ccccc23)cc1,-0.05,0.11
Cc1ccc2c(c1)cc(CN(Cc1ccco1)C(=O)NCc1ccccc1)c1nnnn12,0.85,.
O=S(=O)(Nc1ccc(O)cc1)c1cccs1,0.2,.
CSc1ccccc1Sc1cc(C(=O)NCc2ccco2)c2ccccc2n1,0.05,-0.39
COc1ccc(-c2csc(C(=O)N3CCC(C)CC3)c2)cc1,.,0.02
CCOc1cccc(S(=O)(=O)N=C2C=C(C(C)(C)C)C(=O)C(C(C)(C)C)=C2)c1,-0.55,-0.46
CCCCSc1nnc2c3ccccc3n(C)c2n1,.,0.21
c1ccc(CCSc2nnc3sc4ccccc4n23)cc1,-1.1,-0.32
O=C(NC(=S)N1CCOCC1)c1cn(-c2ccccc2)nc1-c1cccnc1,-0.65,.
Cc1nnc(SCC(=O)Nc2ccc(Cl)c(Cl)c2)c2ccccc12,.,-0.56
CCc1ccc(-c2nc(CN3CCCC(C(=O)NCc4ccc(Cl)cc4)C3)c(C)o2)cc1 (stereo not drawn),0.55,0.005
NC(N)=N/N=C/c1c(Cl)cccc1Cl,.,-0.045
CCOC(=O)C1=C(CSc2nc3c(cc2C#N)CCC3)OC(N)=C(C#N)C1c1cccc(OCc2ccccc2)c1 (stereo not drawn),.,1.5
O=C(Oc1ccccc1)c1ccc(CSc2ccc(C(F)(F)F)cn2)o1,.,0.1
COc1ccc(C=O)cc1CSc1ncccc1C(=O)O,.,-0.39
CCN1C(=O)C(O)(C2COC(C)(C)CC2=O)c2ccccc21 (stereo not drawn),.,-0.075
O=C(O)c1ccc(CS(=O)(=O)c2ccccc2)o1,0,-2.2
COc1cccc(C(=O)c2sc3nsc(SCc4ccccc4)c3c2N)c1,-0.05,-2.3
CC(C)CCn1nc(C(=O)OCC#N)c2ccccc2c1=O,-0.05,.
O=C(Cc1ccc(S(=O)(=O)N2CCCC2)s1)Nc1nc2c(s1)CCCC2,0.15,.
CC12CCC(C(=O)N(c3cccc(O)c3)C1=O)C2(C)C (stereo not drawn),.,-0.16
O=C(OCc1ncc(-c2ccccc2)o1)c1nc(-c2ccccc2)n(-c2ccccc2)n1,0.05,.
O=P(CCCO)(Cc1ccccc1)Cc1ccccc1,-0.55,.
O=C(Cc1ccccc1)c1cccs1,1.1,-0.1
Cc1cccc(CN2CCC(CNC(=O)c3cc4cc5ccc(C)cc5nc4o3)CC2)c1,-0.4,0.75
Cc1nc(CSc2ccccc2)cc(OCc2ccc(Cl)cc2Cl)n1,.,0.15
Cc1cc(-c2nnc(C(F)(F)F)o2)ccc1-n1cccc1,.,0.54
C=CCNC(=O)Cc1c(O)c2ccccc2[nH]c1=O,-0.1,.
CCOc1ccc(NC(=O)c2sc(=S)n(-c3cccc(OC)c3)c2N)cc1,.,-0.13
CCN1CCN(c2ccc(N=Cc3cc(I)ccc3O)cc2)CC1,-0.75,.
NC(=O)c1ccc(-n2nnnc2-n2ccnc2)cc1,-0.7,.
CC(C)(C)c1ccc(NC(=O)N(CCC#N)CCc2ccccn2)cc1,1.4,-1.2
O=C(CS(=O)(=O)Cc1ccccc1)Nc1cc(F)cc(F)c1,-0.3,-0.46
CCOC(=O)c1nc(NCCCN2CCN(c3cc(C)ccc3C)CC2)c2ccccc2n1,0.8,0.36
CCN(CCS(=O)(=O)c1ccc(Cl)cc1)S(=O)(=O)c1ccc(Cl)cc1,-1.8,0.21
CC1CN(C(=O)c2ccc(N)cc2)CC(C)O1 (stereo not drawn),-1.6,0.21
COc1ccccc1NC(=O)CSc1cc(=O)n(C)c2ccccc12,-0.55,2
CC(C)CSC1=NSC2=NC(=O)/C(=C\c3ccc(SCc4ccco4)o3)C(=N)N12,-0.8,-0.84

# Later entries
SMILES,AID504770,CapD inh
CCCn1c2ccccc2c2nnc(SCC(=O)Nc3ccc4c(c3)OCCO4)nc21,0.1,-1
CN(C)S(=O)(=O)c1cccc(CSc2n[nH]c(-c3cccs3)n2)c1,-0.75,.
COc1ccc2c(c1)nnc1n[nH]c(=O)n12,-1.8,-2.4
O=C(NC(=O)N1CCSCC1)c1ccccc1Cl,.,0.14
Cc1cc(C(=O)CSc2nc3ccccc3c(=O)[nH]2)c(C)n1C,-1.4,.
Cc1ccc(Nc2nnc(C3C(=O)N(C)C4(C)CC3c3cc(Br)ccc3O4)s2)cc1 (stereo not drawn),1.9,-0.02
COC(=O)c1ccc(OCC(=O)c2ccc[nH]2)cc1,-0.2,.
COc1cccc(NC(=O)Cn2ncc3c4ccccc4n(Cc4ccccc4)c3c2=O)c1,0,0.055
C/C=N/NC(=O)c1ccccc1,-0.8,.
CC1CC(N(C(=O)C2CC2)c2ccccc2)c2ccccc2N1C(=O)C1CC1 (stereo not drawn),.,-0.16
COc1ccc2c(C)cc(NN)nc2c1,1.3,.
CCOC(=O)c1oc2ccc(S(=O)(=O)N3CCC(c4nnc(-c5ccc(OC)cc5)o4)CC3)cc2c1C,0.35,-0.48
Cc1nnn(C23CC4CC(CC(C(=O)O)(C4)C2)C3)n1,-0.55,.
O=c1c2ccccc2c(-c2cc(C(F)(F)F)cc(C(F)(F)F)c2)nn1CCO,-0.4,0.41
C=C1N(c2ccc(Cl)cc2)C(=O)OC12CCCCC2,-0.8,0.18
O=C(OCCCn1c(=O)[nH]c2ccccc21)c1ccc2c(=O)n3c(nc2c1)CCCCC3,1.2,.
COc1cccc(CSc2ccc(S(=O)(=O)N3CCOCC3)cc2C(=O)N2CCC3(CC2)OCCO3)c1OC,.,0.025
Fc1ccc2c(c1)-c1nocc1CS2,-1.2,0.7
COC(=O)c1c(C)oc(C)c(C(=O)OC)c1=O,-1.4,.
CC1CCN(C(=O)c2cc(Cl)nc3ccccc23)CC1,-0.7,2.2
Cc1ccc2c(c1)-c1sc(C(=O)Nc3ccc(F)cc3)cc1CS2,.,0.54
CCCCN(C)S(=O)(=O)c1cc2c(cc1C)N(C(C)=O)CCO2,0.65,0.71
O=C(NCc1ccco1)c1cc(-c2ccc(F)cc2)nc2ccccc12,-0.3,10
CC(=O)N1CCC(N(CCCN2CCC(C)CC2)C(=O)Nc2ccc(Br)c(C)c2)CC1,0.95,-0.16

# Entries of single compounds, looked up by structure. Order of screens: AID504770 | CapD inh
# Shown for `CC(=O)N1CCC(N(CCCN2CCC(C)CC2)C(=O)Nc2ccc(Br)c(C)c2)CC1` : 0.95 | -0.16
# Shown for `Cc1nnn(C23CC4CC(CC(C(=O)O)(C4)C2)C3)n1` : -0.55 | .
# Shown for `O=c1c2ccccc2c(-c2cc(C(F)(F)F)cc(C(F)(F)F)c2)nn1CCO` : -0.4 | 0.41
# Shown for `O=C(NCc1ccco1)c1cc(-c2ccc(F)cc2)nc2ccccc12` : -0.3 | 10
# Shown for `Cc1ccc2c(c1)-c1sc(C(=O)Nc3ccc(F)cc3)cc1CS2` : . | 0.54

# Remaining list, next part:
SMILES,AID504770,CapD inh
CC(=O)NCCn1c(SCC(=O)OCc2ccccc2)nc2ccccc2c1=O,-0.35,-0.68
CC1CCN(CC(=O)Nc2ccc3ccccc3c2)CC1,-0.15,.
CC(C)(C)Oc1ncc(Br)c(OC(C)(C)C)n1,-1.1,0.085
O=C(NCc1ccccc1)C(NS(=O)(=O)c1cccs1)c1ccccc1 (stereo not drawn),0,1.4
COc1ccc(-c2cc(C(F)(F)F)nc(N3CCOCC3)n2)cc1,1.4,-0.37
N=c1c(C(=O)NCC2CCCO2)cc2c(=O)n3ccccc3nc2n1CCCN1CCOCC1 (stereo not drawn),-0.8,-0.72
CCOc1ccc2nc(SCC(=O)N(C)C)[nH]c2c1,-0.25,-0.2
COc1ccccc1C1Nc2ccc(Cl)cc2C(c2ccccc2)O1 (stereo not drawn),.,-0.41
Cc1cccc(NC(=O)c2ccc3c(c2)CCCC3)n1,-0.5,0.24
COC(=O)c1sc(=S)n(-c2ccccc2)c1C,1.9,-0.88
CCN(CC)c1ncnc2sc(-c3ccccc3)cc12,-0.2,73
CN(CCCN1c2ccccc2CCc2ccccc21)C(=O)OCCc1cccc(F)c1,.,-0.28
CN(c1ccc(C(=O)N2CCc3ccccc3C2)cc1)S(C)(=O)=O,-1.2,.
